Screens from PubChem BioAssay.
Tg IFNy HTS: inhibitors of Toxoplasma gondii growth with IFN-gamma | Toxoplasma gondii growth in IFN-gamma-treated host cells; hits give low values; reference of the scale not given here | 3.8% of 69,000 active | activity change, negative = inhibition, %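 (about 20 µM by stock and volumes)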;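 active = below -70%; inconclusive = fit judged invalid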;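 also: host cells are HeLa cells infected with Toxoplasma gondii; parasite growth read as luciferase light; one replicate is shown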
* = called active by the depositor; i = inactive; ? = inconclusive; & = joins results of further samples.

SMILES	Tg IFNy HTS
O=C(c1cccnc1)N1CCC2(C1)CN(C(=O)c1ccsc1)C2	-1.4
Cc1ccc(CNC(=O)Cn2c(=O)ccc3cc(S(=O)(=O)N4CCC(C)CC4)ccc32)cc1	-44.6
CCc1cnc(C)nc1-c1cc(NCc2ccncc2)nc2[nH]ccc12	-4.6
CC(=O)N1CC2C[C@]2(NC(=O)c2cccc(F)c2)C1 (stereo partly drawn)	144.3
CC(=O)Nc1ccc(/C=C/c2ccccc2)cn1	43.5
O=C(CC1SC(=Nc2ccccc2)NC1=O)Nc1ccccc1 (stereo not drawn)	-18.8
CCOC(=O)C(NCc1ccco1)(NC(=O)c1ccco1)C(F)(F)F (stereo not drawn)	81.7
O=C(CN1C(=O)CCc2cc(Br)ccc21)N1CC=C(c2ccccc2)CC1	58.9
CN1CCc2c(C#N)c(N)sc(=S)c2C1	3.7
CC(Cn1cncn1)NCc1noc(C2CCCC2)n1 (stereo not drawn)	8.8
CCOC(=O)c1cnc(SC)nc1-c1cccc2ccnn12	-13.9
CCCn1ncc(C(=O)Nc2ccccc2CN2CCCCC2)c1C	-52.4
O=S(=O)(c1ccc(F)cc1)N1C[C@@H]2[C@H](c3ccccc31)[C@H](CO)N2Cc1ccccc1Cl	-5.8
O=C(Nc1ccc(-c2nc(-c3cccc(Br)c3)co2)cc1)c1ccco1	21.1
CN1CC(=O)N(c2cccc(F)c2)CC12CCN(C(=O)N1CCCC1)C2 (stereo not drawn)	0.7
C[C@@H]1CN([C@@H](C)CO)C(=O)CCCn2cc(nn2)CO[C@@H]1CN(C)C(=O)Nc1cccc(C(F)(F)F)c1	-13.7
Cc1nc(SCc2c(Cl)cccc2Cl)nc(OC(=S)N(C)C)c1C	-64.0
N#C[C@H]1[C@H](c2ccc(-c3cccc(F)c3)cc2)[C@@H](CO)N1C(=O)CN1CCOCC1	-6.9
NC(=O)c1ncn([C@@H]2O[C@H](CO)[C@@H](O)[C@H]2O)c1O	1.5&-33.0
COc1cccc(CN2CC3(CCN(S(C)(=O)=O)CC3)c3c(n(C)c4cc(OC)ccc34)[C@@H]2CO)c1	217.5
Cc1ccc(CNC(=O)CN2C(=O)CCc3cc(S(=O)(=O)N4CCCCC4C)ccc32)cc1 (stereo not drawn)	-9.2
C[C@@H]1CN([C@@H](C)CO)C(=O)c2cccc(NC(=O)NC3CCCCC3)c2O[C@H]1CN(C)Cc1ccc(C(F)(F)F)cc1	-62.4
Cc1nnnn1-c1ccc(CC(=O)N2CCc3c([nH]c4ccccc34)C2C)cc1 (stereo not drawn)	-4.7
O=C(C[C@@H]1CC[C@@H]2NC[C@H](O)COC[C@H]2O1)Nc1ccc(-c2ccccc2)cc1	-10.4
O=C(NCc1nncn1C1CCCCC1)c1cc2sccc2[nH]1	-11.4
CCc1ccc(S(=O)(=O)NCCc2csc(-c3ccc(F)cc3)n2)s1	-66.6
CC(C)C[C@H]1COCc2cn(nn2)CC[C@H](Cc2ccc(Cl)cc2)C(=O)N1	29.2
CN1CC2(CCN(C(=O)c3csc(-c4cccs4)n3)C2)OC1=O (stereo not drawn)	4.2
O=C(Nc1cccc(Cl)c1)N[C@@H]1CC[C@@H](CCn2cc(Cc3ccccc3)nn2)O[C@@H]1CO	-73.7*
CN1CC[C@@H](c2c(O)cc(O)c3c(=O)cc(-c4ccccc4Cl)oc23)[C@@H]1CO	-74.3*
CC(C)NC(=O)N1[C@@H]2CNC[C@H]1C2c1ccc(/C=C/c2ccccc2)cc1 (stereo partly drawn)	29.4&32.8
C=CCNc1nc(-c2nnc(-c3ccc(C)cc3)o2)nc2ccccc12	8.0
O=C(c1cccnc1)N1CC(=O)N2[C@H](C1)[C@@H](c1ccc(-c3ccccc3F)cc1)[C@@H]2CO	-1.6
O=C(Nc1ccc(-c2nc(-c3ccccc3)co2)cc1)c1ccccc1F	31.1
O=C(CCC1Nc2c3ccccc3nc(=S)n2C1=O)N1CCN(c2ccc(Cl)cc2)CC1 (stereo not drawn)	7.9
O=C(O)/C=C/c1cccc(OCc2ccccc2)c1	33.6
COc1ccc2cc([C@H](C)C(=O)Nc3cnc4n3CCCC4)ccc2c1	-23.4
COc1ccc(-c2ccc([C@H]3[C@H]4CN(C(=O)C5CC5)CC(=O)N4[C@H]3CO)cc2)cc1	-28.1
COCCOC(=O)C1=C(N)OC2=C(C(=O)CCC2)C1c1cccnc1 (stereo not drawn)	-4.7
CCc1cn[nH]c1C1CCN(C(=O)c2cc(=O)[nH]c3ccc(F)cc23)CC1	11.9
C[C@H](CO)N1C[C@H](C)[C@H](CN(C)C(=O)NC2CCCCC2)OCc2ccccc2-c2ccccc2C1=O	-21.9
CCN1c2ccccc2C(=O)NC12CCN(C(=O)Nc1cc(C)ccc1OC)CC2	2.3
CCC(NC(=O)Cc1cn2ccsc2n1)c1nc(C)c(C)s1 (stereo not drawn)	-13.3
COCC1c2c(cnn2C)CCN1S(=O)(=O)Cc1ccccc1 (stereo not drawn)	43.2
Cc1cc(C)cc(NC(=O)c2nnn(Cc3nc(-c4ccc(Cl)cc4)oc3C)c2C)c1	-8.9
CCCC(=O)Nc1ccc2c(c1)CCC(=O)N2CCOC	111.3
Cc1cccc(-c2nnc(-c3nc(N4CCCCC4C)c4ccccc4n3)o2)c1 (stereo not drawn)	27.4
C[C@@H](CNc1nc2c(c(=O)[nH]1)CCCC2)NC(=O)c1cccc2[nH]c(C(F)(F)F)nc12	13.9
C=CCc1cc(CN2C[C@H](N)C[C@H]2C(=O)NC)ccc1OC	0.7
COc1cccc(CC(=O)N2CCC(n3nnc4c(C)cccc4c3=O)CC2)c1	-23.3
CC(=O)OCC12CC=C(C)C(C1)C(c1ccc(OC(C)=O)cc1)OC2 (stereo not drawn)	18.3
C=CCn1c(=O)c(C(=O)Nc2ccc(F)cc2F)c(O)c2ccccc21	i
Cc1cc(C)cc(NC(=O)Cn2ncc3c(N4CCN(c5ccccc5)CC4)ncnc32)c1	-10.9
CC(C)(O)C#Cc1cccc(C(=O)N2CC(c3ccncc3)C2)c1	-4.3
CC1(C)CC(N(Cc2ccncc2)Cc2ccc(N3CCOCC3)cc2)CC(C)(C)N1	7.4
O=C(CCC1N=C2c3ccccc3N=C(SCc3cccc(Cl)c3)N2C1=O)NCc1cccs1 (stereo not drawn)	-36.0
CCC(C)NC(=O)N1CCCn2cnc(CO)c2C1 (stereo not drawn)	3.6
Cc1ccnc(CC(C)N(C)C(=O)c2ccc3nccn3c2)c1 (stereo not drawn)	-1.2
COc1ccc(NC(=O)N(C)C[C@@H]2Oc3c(NS(=O)(=O)c4c(C)noc4C)cccc3C(=O)N([C@H](C)CO)C[C@@H]2C)cc1	-49.0
Cc1nccn1CC1(O)CCN(C(=O)c2cc3c(s2)CCCC3)CC1	-33.6

An excerpt taken from the entries so far:
SMILES	Tg IFNy HTS
CCN1c2ccccc2C(=O)NC12CCN(C(=O)Nc1cc(C)ccc1OC)CC2	2.3
CCC(NC(=O)Cc1cn2ccsc2n1)c1nc(C)c(C)s1 (stereo not drawn)	-13.3
COCC1c2c(cnn2C)CCN1S(=O)(=O)Cc1ccccc1 (stereo not drawn)	43.2
Cc1cc(C)cc(NC(=O)c2nnn(Cc3nc(-c4ccc(Cl)cc4)oc3C)c2C)c1	-8.9
CCCC(=O)Nc1ccc2c(c1)CCC(=O)N2CCOC	111.3
Cc1cccc(-c2nnc(-c3nc(N4CCCCC4C)c4ccccc4n3)o2)c1 (stereo not drawn)	27.4
C[C@@H](CNc1nc2c(c(=O)[nH]1)CCCC2)NC(=O)c1cccc2[nH]c(C(F)(F)F)nc12	13.9
C=CCc1cc(CN2C[C@H](N)C[C@H]2C(=O)NC)ccc1OC	0.7
COc1cccc(CC(=O)N2CCC(n3nnc4c(C)cccc4c3=O)CC2)c1	-23.3
CC(=O)OCC12CC=C(C)C(C1)C(c1ccc(OC(C)=O)cc1)OC2 (stereo not drawn)	18.3
C=CCn1c(=O)c(C(=O)Nc2ccc(F)cc2F)c(O)c2ccccc21	i
Cc1cc(C)cc(NC(=O)Cn2ncc3c(N4CCN(c5ccccc5)CC4)ncnc32)c1	-10.9
CC(C)(O)C#Cc1cccc(C(=O)N2CC(c3ccncc3)C2)c1	-4.3
CC1(C)CC(N(Cc2ccncc2)Cc2ccc(N3CCOCC3)cc2)CC(C)(C)N1	7.4
O=C(CCC1N=C2c3ccccc3N=C(SCc3cccc(Cl)c3)N2C1=O)NCc1cccs1 (stereo not drawn)	-36.0
CCC(C)NC(=O)N1CCCn2cnc(CO)c2C1 (stereo not drawn)	3.6

(continued)
SMILES	Tg IFNy HTS
Cc1cccc(CN2CCN(Cc3cnc(-c4cccs4)nc3)CC2)c1	-19.8
CC(O)(c1ccncc1)c1nccs1 (stereo not drawn)	7.2
N#C[C@@H]1[C@H](c2ccccc2)[C@@H](CO)N1C(=O)c1ccc2c(c1)OCO2	-7.6
Cc1cccc(CN(Cc2ccccc2)C(=O)c2cnc3scc(C)n3c2=O)n1	-5.9
COc1ccc2c3c(n(C)c2c1)[C@H](CO)N(C)CC31CCN(C(=O)c2ccc3c(c2)OCO3)CC1	76.3
CC1Cn2c(nc3c2c(=O)[nH]c(=O)n3C)O1 (stereo not drawn)	-9.6
Cc1[nH]cnc1-c1nccn1CCN1CCOC1=O	4.1
Cc1ccccc1C(=O)NNc1ncnc2c1cnn2C	38.0
CC(C)(C)NC(=O)c1cc(-c2ccn(C3CCCC3)n2)n2ccccc12	62.9
COc1ccc2nc(Cl)c(CN(Cc3cccc(C)c3)C(=O)c3ccccc3)cc2c1	-23.7
COc1ccc2c3c(n(C)c2c1)[C@@H](CO)N(S(C)(=O)=O)CC31CCN(CC2CCCCC2)CC1	32.4
CCOc1ccccc1-c1nc(Cn2ccn3nc(-c4ccc(C)c(C)c4)cc3c2=O)c(C)o1	97.5
CCOC(=O)c1ccc(-n2sc3c(c2=S)-c2cc(OC)ccc2NC3(C)C)cc1	-32.6
CC/C=C(\C)c1c(-c2ccccc2)ncn1CCN	-4.6
Nc1ncnc2oc(-c3ccccc3)nc12	-41.2
Cc1ccc(S(=O)(=O)N2CCC(C(=O)NCCc3csc(-c4ccccc4)n3)CC2)cc1C	-15.0
O=C(c1ccc(F)cc1)N1CCc2onc(COCC3CC3)c2C1	-5.8
O=C(NCCCN1CCCC1=O)c1ccccc1C1CCNC1 (stereo not drawn)	1.2
COc1ccccc1-c1ccc(C2[C@@H]3CN(S(=O)(=O)c4ccc(C)cc4)C[C@H]2N3)cc1 (stereo partly drawn)	-54.3&-57.5
CCc1nc(SCC(=O)N2CCCN(C)C3(CCN(C)CC3)C2)n[nH]1	-0.8
CCNC(=O)C[C@H]1CC[C@@H]2[C@H](COC[C@@H](O)CN2C(=O)C2CCCC2)O1	16.4
CN1CCN(C(=O)c2cc3c(c(-c4cccc(C5=CCCC5)c4)n2)[C@@H](CCO)N([S@](=O)C(C)(C)C)C3)CC1	-3.8
CC(C)C1CN(C(=O)Cc2ccccc2)CCC(=O)N1Cc1ccc(F)cc1 (stereo not drawn)	-18.9
Cc1nc(N(C)C)nc2c1COCC21CCN(C(=O)C2CC2)C1 (stereo not drawn)	-6.4
CCCCc1nc(-c2nccn2CCc2cnc[nH]2)c(Cl)[nH]1	-67.6
O=C(C[C@H]1C=C[C@H](NC(=O)Cc2cccnc2)[C@@H](CO)O1)NCc1ccc2c(c1)OCO2	-1.5
O=C(Cn1ncc2c(N3CCCC3)ncnc21)Nc1cccc(Cl)c1	-54.7
O=C(Cc1cccs1)NCc1ccc(Cl)cc1Cl	67.7
CN(Cc1ccncc1)C1CCC[C@@H]2CN(S(C)(=O)=O)C[C@@H]12 (stereo partly drawn)	5.1
COCCN(C)c1nc(C2CCN(S(C)(=O)=O)CC2)cc2c1ncn2C(C)C	-5.3
Cn1nc(Cn2ccnc2)c2c1CN(C(=O)c1ccoc1)C2	-1.3
CN1CC2(CCN(C(=O)c3ccccn3)CC2)CC1COCC1CC1 (stereo not drawn)	5.8
CCN(C[C@@H]1[C@H](c2ccccc2)[C@@H](CO)N1C(=O)COC)S(C)(=O)=O	-2.8
CCOC(=O)c1cn[nH]c1C(F)(F)F	-59.2
CC(C)C(c1nnnn1Cc1ccccc1)N(Cc1cccnc1)Cc1ccccc1Cl (stereo not drawn)	-30.9
Cc1ccc(-n2ncc3c(NC(C)(C)C)ncnc32)c(C)c1	77.8
COCCNC(=O)C[C@@H]1CC[C@@H]2[C@@H](COc3ccc(NS(=O)(=O)c4ccc(Cl)cc4)cc3C(=O)N2C)O1	8.0
COc1ccc(C(=O)N2CCc3c([nH]c4ccccc34)C2c2ccc(SC)cc2)cc1 (stereo not drawn)	-104.6*
CC(C)(CO)CNC(=O)CC1C(=O)NCCN1CC(c1ccccc1)c1ccccc1 (stereo not drawn)	17.7
CCCNC(=O)c1cc(-c2csc(-c3cnccn3)n2)n2ccccc12	-13.9
CCCc1cc(CNC(=O)c2cc(-c3cccs3)no2)on1	-4.0
O=C(CC1CCNCC1)Nc1ccc2nccnc2c1	1.1
O=S(=O)(c1cccs1)N1CC[C@@H](O)[C@@H]1Cc1ccccc1	-4.6
CN1CC2(CCN(S(C)(=O)=O)CC2)CC1COCC1CC1 (stereo not drawn)	61.4
COC(=O)[C@@H]1CN(CC(C)C)C[C@H]1S(=O)(=O)c1ccccc1	148.6
O=C(NCC1(Cn2cccn2)CC1)c1n[nH]c(=O)c2ccccc12	23.9
Fc1ccc(CSc2nc(Nc3ccc(F)c(F)c3)c3ccccc3n2)cc1	-80.5*
COC(=O)c1nn(-c2ccccc2)nc1C	?
COCC(=O)N1CCO[C@@H]2[C@H]1CC[C@H]2OC	34.3
COCC(=O)NCc1cnc(N(C)C)nc1-c1cn(C)c2ccc(OC)cc12	7.3
Cc1noc(C)c1NC(=O)N(C)C[C@@H]1OCc2cn(nn2)CCCC(=O)N([C@H](C)CO)C[C@H]1C	197.5
CCC(=O)Nc1ccc(C(=O)N2CCN(C(=O)c3ccco3)CC2)cc1	-4.1
Cc1cc(C)c(S(=O)(=O)N2CCC3(CC2)NCCN=C3NC2CCCCC2)cc1C	-37.9
Cc1cccnc1CN(Cc1ccccc1)S(=O)(=O)c1cnn(C(F)F)c1C	-14.3
COc1ccc(S(=O)(=O)N(Cc2nc(-c3ccccc3OC)oc2C)c2ccccc2OC)cc1	5.7
c1ccc(-c2csc(N/N=C3\CCCc4ccccc43)n2)cc1	179.4

These rows are one share of the data; rates above refer to the full screens.
